Assay outcomes as filed in PubChem.
HPGD block = qHTS Assay for Inhibitors of HPGD (15-Hydroxyprostaglandin Dehydrogenase); purified HPGD, NADH fluorescence kinetic, PGE2 substrate; Potency, µM, inactives show at the top dose activity change, negative = inhibition, actives largely listed as inhibitors; actives 4.3% (n = 150,000); active = well fitted inhibition curve with a large enough effect (not every such curve was filed as active); inconclusive = small, poorly fitted or top-dose-only effect, or another doubt; inactive = no such curve, though single readings can be large or run the other way;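 also: top concentration of the series not given in the record; plate controls included wells without enzyme; inactives centre near -10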
Target sequence (P15428 whole entry, looked up): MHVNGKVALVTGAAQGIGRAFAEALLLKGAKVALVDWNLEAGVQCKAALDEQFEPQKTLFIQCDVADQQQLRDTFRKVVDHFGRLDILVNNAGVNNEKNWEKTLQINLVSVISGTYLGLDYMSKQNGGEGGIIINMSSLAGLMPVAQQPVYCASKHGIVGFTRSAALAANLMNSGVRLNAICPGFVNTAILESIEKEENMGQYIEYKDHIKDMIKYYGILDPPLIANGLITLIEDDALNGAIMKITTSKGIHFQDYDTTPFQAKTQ
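NADH formation kinetics: reaction with 30 uM PGE2 and 1 mM NAD+ (final), 20 nM enzyme, Tris-HCl pH 8 with Tween 20, after 15 min compound preincubation at room temperature. Fluorescence change, last versus first of five reads.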
The depositor's hits bear a star; ? = inconclusive. % is scaled to controls: 0 for no effect and ±100 for the full control effect; potency is read from the fitted curve at half-maximal effect.

HPGD block	structure
-20.6%	CCSc1nc2c(cnn2-c2ccc(C)c(C)c2)c(=O)[nH]1
?	CCN(CC)S(=O)(=O)c1cccc(C(=O)Nc2cc3oc4ccccc4c3cc2OC)c1
-12.3%	CCCc1cc(=O)[nH]c(SCC(=O)OCc2ccccc2)n1
-9.2%	COc1cccc(/C=N/NC(=O)c2ccc(=O)n(C)c2)c1O
-6.0%	COc1cc(NC(=O)CN2C(=O)NC(C)(c3ccccc3)C2=O)c(C)cc1[N+](=O)[O-] (stereo unspecified)
1.8%	COc1ccc(CN2CCN(C(=O)c3cccs3)CC2)cc1Br
-9.5%	CC(CN1CCCC(C(N)=O)C1)c1ccccc1 (stereo unspecified)
-5.3%	CSc1cccc(NC(=O)CN(C)S(=O)(=O)c2ccc(F)cc2)c1
-9.0%	CCSc1nnc(NC(=O)NC(C)(C(F)(F)F)C(F)(F)F)s1
-3.8%	C=CCN1c2ccccc2[C@]23C[C@@H](C(=O)OC)N(S(=O)(=O)c4ccc(C#N)cc4)C2=NC(C(=O)OC)=C(C(=O)OC)[C@H]13
-5.8%	Cc1ccnc(SCCn2c(N3CCC(C)CC3)nc3c2c(=O)[nH]c(=O)n3C)n1
-11.6%	COc1ccc(NC(=O)c2cn(-c3ccccc3)nc2-c2cc3ccccc3o2)cc1

The final three records of the section before are carried over, then new ones follow.
HPGD block	structure
-3.8%	C=CCN1c2ccccc2[C@]23C[C@@H](C(=O)OC)N(S(=O)(=O)c4ccc(C#N)cc4)C2=NC(C(=O)OC)=C(C(=O)OC)[C@H]13
-5.8%	Cc1ccnc(SCCn2c(N3CCC(C)CC3)nc3c2c(=O)[nH]c(=O)n3C)n1
-11.6%	COc1ccc(NC(=O)c2cn(-c3ccccc3)nc2-c2cc3ccccc3o2)cc1
?	C=C(C)CSc1nc2ccccc2[nH]1
-21.6%	O=C(N/N=C/c1ccccc1)c1[nH]c2ccc(Br)cc2c1-c1ccccc1
-27.1%	O=C(O)c1cccc(CSc2nnc(Cc3ccccc3)o2)c1
-6.5%	COc1ccc(N(CC(=O)NCc2cccs2)S(=O)(=O)c2c(C)n[nH]c2C)cc1
-6.5%	CC(=O)N1CCN=C1SCc1ccc(F)cc1
-7.6%	COc1ccccc1NC1SC(=O)N(c2ccccc2)C1=O (stereo unspecified)
10µM*	CCC1CCC2(CC1)NNC(=S)NN2
-16.8%	O=C(NN=C(Cc1ccccc1)Cc1ccccc1)c1ccc(F)cc1
-4.3%	C=CCOc1c(CNc2ccc(C(=O)O)cc2)cccc1OCC
17.8µM*	CC(=O)Nc1ccc(S(=O)(=O)NC2(C(F)(F)F)C(=O)Nc3c2c(=O)[nH]c(=O)n3Cc2ccccc2)cc1 (stereo unspecified)
-8.8%	C[C@H](C(=O)O)c1cccc(Oc2ccccc2)c1
-4.5%	Clc1cccc(-c2nc(NCc3cccnc3)c3ccccc3n2)c1

Following part:
HPGD block	structure
-3.8%	CC(C)C[C@@H](NC(=O)OCC1c2ccccc2-c2ccccc21)C(=O)O
-10.7%	CCOC(=O)N1CCN(C(=O)COc2ccc(S(=O)(=O)NC3CCCCC3)cc2C)CC1
-13.7%	O=C(CCN1CCCC1)Nc1ccc(Br)cc1
7.2%	CC1CN(CCCOc2ccccc2[N+](=O)[O-])CC(C)O1 (stereo unspecified)
-6.5%	COc1ccc(C2C(C(=O)NCc3cccnc3)c3cc(OC)c(OC)cc3C(=O)N2C)cc1 (stereo unspecified)
-14.3%	CCOC(=O)CSC1=C(C#N)C(=O)NC(c2ccc(OC)c(OC)c2)S1 (stereo unspecified)
-2.4%	N#Cc1ccc(CN2CCCC3(CCN(C(=O)c4cnccn4)CC3)C2)cc1
?	COC(=O)c1sc2nc(CN3CCOCC3)nc(N3CCOCC3)c2c1C
-11.5%	Cc1cc(C)nc(SCc2nnc(SCC(=O)Nc3ccc(C)c(C)c3)o2)n1
-10.9%	CCOC(=O)c1cccc(NC(=O)c2ccco2)c1
-6.7%	CC(C)(C)n1nnnc1C(c1cccc(C#N)c1)N1CCC(Cc2ccccc2)CC1 (stereo unspecified)
-4.9%	Cc1ccc(N2CC(C(=O)Nc3nnc(SCC(=O)Nc4nc(C)cs4)s3)CC2=O)cc1 (stereo unspecified)

Next results
HPGD block	structure
-4.0%	O=C1C(C=NCCCN2CCCC2=O)=C(O)c2ccccc21
-1.3%	CC(C)C(=O)Nc1cccc(C(=O)NCc2ccc(S(N)(=O)=O)cc2)c1
-4.6%	O=C(NCc1ccco1)c1ccc2c(c1)N(Cc1ccccc1)C(=O)CS2
-0.2%	CCOC(=O)N/N=C/c1ccc(C)o1
-13.2%	NC(=O)C1CCN(C(=O)Nc2ccccc2)CC1
-6.0%	Cc1ccc(S(=O)(=O)C2(C(=O)NCc3ccc4c(c3)OCO4)CC2)cc1
-11.2%	COc1cc(OC)cc(C(=O)Nc2cccc(NC(C)=O)c2)c1
?	CCOC(=O)N1CCN(C(=O)c2cc3c(s2)-c2ccccc2OC3)CC1
-19.4%	c1ccc(Nc2nc(-c3ccncc3)cs2)nc1
-10.7%	COC(=O)CCC(=O)N1CCc2cc(S(=O)(=O)N3CCc4ccccc43)ccc21
-15.9%	CCOc1ccc(CC(=O)C2C(=O)CC(C)(C)CC2=O)cc1OCC
-3.5%	CCOC(=O)c1cccc(NC(=O)C2CCCN(S(=O)(=O)c3cnc[nH]3)C2)c1 (stereo unspecified)

Carrying on:
HPGD block	structure
-13.8%	COc1ccc(NC(=O)C2CCCN2S(=O)(=O)c2ccc3c(c2)CCC(=O)N3)cc1 (stereo unspecified)
-16.3%	CC(=O)NC(=O)NC1CSCC1OC(C)=O (stereo unspecified)
-6.3%	CCCCCCCCCCCCC/C=C/[C@@H](O)C(CO)NC(C)=O (stereo partly specified)
-7.7%	CC(C)(C)NC(=O)NC(=O)COc1ccccn1
-9.8%	COc1ccccc1CNC(=O)CC(NS(=O)(=O)c1ccc(C)cc1)c1ccco1 (stereo unspecified)
0.631µM*	CC1CCN(c2c(NCC3CCC(C(=O)N4CCCC(C)C4)CC3)c(=O)c2=O)CC1 (stereo unspecified)
-10.9%	Cc1cc(C(=O)N/N=C/c2cccc([N+](=O)[O-])c2O)n[nH]1
1.7%	COC(=O)[C@H]1[C@H](C(=O)OC)[C@@H](C(=O)OC)N(c2ccc(OC)cc2)[C@@H]1C(=O)OC
?	Clc1ccc(OCCOCCOc2cccc3cccnc23)c(Br)c1
-4.1%	CCN1CCN(Cc2cccc(Oc3ccccc3)c2)CC1
-12.6%	CCOc1cc(/C=C2\CCCC(C(=O)C(F)(F)F)=C2O)ccc1O
-9.6%	COC(=O)c1ccc(COC(=O)c2ccc(CS(=O)(=O)c3ccc(C)cc3)cc2)cc1

Molecules listed so far that have a Cl atom:
HPGD block	structure
-4.5%	Clc1cccc(-c2nc(NCc3cccnc3)c3ccccc3n2)c1
?	Clc1ccc(OCCOCCOc2cccc3cccnc23)c(Br)c1

Continued:
HPGD block	structure
-4.9%	COC(=O)c1ccc(C(/C=C/[C@@H](C)C(=O)NCc2ccccc2)NC(=O)OCc2ccccc2)cc1 (stereo partly specified)
-4.1%	COC(=O)c1ccccc1NC(=O)Nc1cnccn1
-4.2%	Cc1cc(C)c(C(=O)COC(=O)CCNS(=O)(=O)c2c(Cl)cccc2Cl)cc1C
?	CCCn1nc2cc(C(=O)NCc3ccc(OC)cc3)ccc2c1OCC
-4.0%	Cn1c(=O)[nH]c2nc[nH]c2c1=O
-5.5%	O=c1cc(CO)oc(CN2CCC(Cc3ccccc3)CC2)c1O
-10.4%	Cc1ccc(OCCn2cc(C(=S)N3CCCC3)c3ccccc32)cc1C
-24.7%	C=CCn1c(O)c(N=NC(=S)Nc2ccccc2C)c2cc(S(=O)(=O)N3CCOCC3)ccc21
-13.8%	Cc1nn(CC(=O)Nc2ccccn2)c(=O)c2ccccc12
-8.5%	CCN(CC)S(=O)(=O)c1cccc(C(=O)N2CCCCC2)c1
-3.6%	CCNC(=S)NNC(=O)c1cc(CC(C)C)nc2ccccc12
-8.3%	CNC(=S)N(Cc1cccs1)Cc1cc2ccc(OC)cc2[nH]c1=O

Next records
HPGD block	structure
?	COCCn1nnnc1CN(Cc1cccnc1)Cc1cc2cc(OC)ccc2[nH]c1=O
-15.6%	CCCC(=O)Nc1nnc(COC)s1
?	COc1ccccc1-c1cc(C2CC2)nc(N)c1C#N
-15.0%	COc1ccc2cc(C3CC(c4cccs4)=NN3S(C)(=O)=O)c(Cl)nc2c1 (stereo unspecified)
-29.8%	COC(=O)c1nc2n(n1)C(c1cccc(Cl)c1)C1=C(CC(C)(C)CC1=O)N2 (stereo unspecified)
-5.0%	C=CCOc1c(Br)cc(/C=N/O)cc1OCC
-6.4%	CN1CCN(CCN2CCn3c2nc2ccccc23)CC1
?	CC1CCc2c(sc3nn[nH]c(=O)c23)C1 (stereo unspecified)
?	COC(=O)c1ccc(C(=O)OC)c(NC(=O)COC(=O)C2CCCCC2)c1
-12.1%	O=C(CN1CCN(C(=O)c2ccco2)CC1)Nc1ccc(Cl)c(C(F)(F)F)c1
-18.5%	CCOP(=O)(c1ccc(N(C)C)cc1)C(O)c1ccc(Cl)cc1 (stereo unspecified)
-10.4%	Clc1ccc2oc(-c3cccnc3)nc2c1

(cont.)
HPGD block	structure
?	O=C(CN1C(=O)c2cccc3cccc1c23)N1CCN(c2cccc(Cl)c2)CC1
-1.7%	CCCCNC(=O)Nc1ccccc1C(=O)Nc1ccc(OC)cc1
-14.8%	Cn1c(Cn2c(=O)sc3ccccc32)nnc1SCC(=O)NCC1CCCO1 (stereo unspecified)
-7.7%	Cc1ccc(Cn2ncc(Cl)c(Cl)c2=O)cc1
13.8%	COc1cc(C2c3c(-c4cc(C)cc(C)c4O)n[nH]c3C(=O)N2CCCO)cc(OC)c1OC (stereo unspecified)
-2.6%	NCCCCCc1nnc(SC/C=C/c2ccccc2)o1
7.94µM*	O=C(COc1cccc(F)c1)Oc1ccc(C(=O)c2ccccc2)cc1
3.1%	Cc1ccc(Cl)cc1N(CC(=O)N1CCCCCC1)S(C)(=O)=O
?	O=C(Nc1ccc(Cl)cc1)N1CCN(c2ccc3nnc(-c4ccc(F)cc4)n3n2)CC1
-0.7%	Nn1c(SCC(=O)Nc2ccc3c(c2)OCO3)nnc1-c1ccc(Cl)cc1
-8.5%	COc1ccccc1NC(=O)CSc1nnc(Cc2cc(=O)[nH]c(=O)[nH]2)n1-c1ccccc1
3.2%	CCOc1ccc(Cc2nnc(SCC(N)=O)n2C)cc1

Some of the entries above in a different format.
COc1ccccc1NC(=O)CSc1nnc(Cc2cc(=O)[nH]c(=O)[nH]2)n1-c1ccccc1
- HPGD block = -8.5%
CCOc1ccc(Cc2nnc(SCC(N)=O)n2C)cc1
- HPGD block = 3.2%

The listing picks up, starting 2 compounds before the break.
HPGD block	structure
-8.5%	COc1ccccc1NC(=O)CSc1nnc(Cc2cc(=O)[nH]c(=O)[nH]2)n1-c1ccccc1
3.2%	CCOc1ccc(Cc2nnc(SCC(N)=O)n2C)cc1
-15.4%	CN1[C@@H]2CC[C@H]1CC(OC(=O)c1c[nH]c3ccccc13)C2 (stereo partly specified)
?	COc1ccc(NC(=O)N(Cc2cc3cc(OC)ccc3[nH]c2=O)CC2CCCO2)cc1 (stereo unspecified)
2.4%	CC(=O)Nc1ccc(S(=O)(=O)Nc2ccc(S(=O)(=O)N3CCCC3)cc2)cc1
?	COc1ccc(Oc2ncc3nc(-c4ccc(Cl)cc4)c(=O)n(CCC#N)c3n2)cc1
15.8µM*	O=C1NC2(CCCc3ccccc32)C(=O)N1CCOc1ccc(Br)cc1 (stereo unspecified)
-7.5%	Cc1onc(-c2ccccc2)c1C(=O)NC(=S)NNC(=O)c1ccccc1O
-21.6%	CCC(OC(=O)CC1Sc2ccccc2NC1=O)C(=O)NCC1CCCO1 (stereo unspecified)
-8.4%	CCOC(=O)C1=C(CSc2nc(C)ccc2C#N)OC(N)=C(C#N)C1c1cccc(OC)c1OC (stereo unspecified)
2.8%	Cc1cc(=O)[nH]c(N2CCN(Cc3ccccc3)CC2)n1
?	O=C(NCc1ccccc1)NC1CCCCC1
-1.3%	CCN(CC)CCCOc1ccc(Cl)c(Cl)c1
-6.6%	CN(C)C1CCN(C(=O)c2ccc(-n3c(=O)c(=O)[nH]c4ccccc43)cc2)C1 (stereo unspecified)

Additional records:
HPGD block	structure
-5.5%	Cc1nc2ccccc2n1CC(=O)OCC(=O)NCCc1ccccc1
-4.5%	Cc1ccc(S(=O)(=O)Nc2cc(C(F)(F)F)ccc2N2CCOCC2)cc1C
-27.0%	S=C(c1ccc(N2CCOCC2)cc1)N1CCCCC1
-9.9%	CCCC1CCC(C(=O)Nn2c(C)nc3ccccc3c2=O)CC1 (stereo unspecified)
-21.1%	CCCCN1CCC[C@@H]1CNC(=O)c1cc(C#N)c2ccccc2c1OC
-13.9%	COC(=O)Cc1csc(Nc2ccc(Cl)cc2)n1
-2.8%	Cc1ccc(C2=NN(CCC(=O)NCc3ccc4c(c3)OCO4)C(=O)CC2)cc1
15.8µM*	Cc1ccc(-n2ncc3c(=O)[nH]c(SCC(=O)N4CCCC4)nc32)cc1C
-9.0%	O=C(CN1CCN(S(=O)(=O)c2ccc3ccccc3c2)CC1)NC(=O)NC1CCCCC1
-4.6%	COc1ccccc1N1CCN(C(=O)c2ccc3[nH]c4c(c3c2)CC(C)CC4)CC1 (stereo unspecified)
-26.7%	Cc1nn(-c2ccccc2)c(C)c1/C=N/NC(=O)c1cc(C(C)(C)C)[nH]n1
-7.4%	CCOC(=O)C1=C(C)c2ccccc2OC1C(=O)OCC (stereo unspecified)
-11.2%	CCOC(=O)c1cccc(NC2c3ccccc3C(=O)N2Cc2ccco2)c1 (stereo unspecified)

An excerpt (hit frequency here may not be typical).
